# CDC25B CDK2 inh – human CDC25B-CDK2/CyclinA binding inhibition. P30305+P24941. HTRF CDC25B-CDK2/CyclinA binding, anti-His/anti-Flag; active compounds read high. z-score (test concentration not listed). 94,000 tested, 0.72% active. AID 1259370;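 also: score is relative to mean and SD of negative controls; strong numbers were not always called active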
# TAR Tat displ – HIV-1 TAR-Tat binding disruption; AID 1259389; 100,000 tested, 0.6% active; HIV-1 TAR RNA, Tat peptide displacement FRET; active compounds read high; z-score (no concentration beside the values);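 also: score is relative to mean and SD of negative controls; some compounds called inactive have numbers as strong as hits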
# Numbers without * were called inactive; . = no result given.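 The calls were made as follows: active = z-score from 3 up in half or more of its runs; inactive = the rest.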
SMILES,CDC25B CDK2 inh,TAR Tat displ
CC(=O)N1c2ccc(S(=O)(=O)N3CCCC3)cc2CC1C(=O)NCC1CCCO1 (configuration not stated),1.3,0.49
COc1cc2c(cc1OC)C(c1cc(Cl)ccc1OC)CC(=O)N2 (configuration not stated),-1.8,.
O=c1[nH]c2cc(C(F)(F)F)cc(Br)c2[nH]c1=O,-0.33,.
Cc1ncc(-c2ccc(S(=O)(=O)NCCc3ccc(Cl)cc3)cc2)o1,.,1.1
Cc1ccccc1S(=O)(=O)N1CCCN(c2nc3cc(Cl)ccc3n3cccc23)CC1,-3.4,-0.23
NC(=O)C1(N2CCCCC2)CCN(S(=O)(=O)c2ccc3c(c2)OCCCO3)CC1,0.48,.
CCOC(=O)c1cn(C(=O)CCSc2ccc(OC)cc2)nc1N,-1.6,.
COc1cccc(C2(O)CCSc3ccccc32)c1 (configuration not stated),0.02,.
CCn1cc(C(=O)N2CCOCC2)c(=O)c2cc(S(=O)(=O)N3CCc4ccccc4C3)ccc21,-0.87,1.6
COc1cn(CC(=O)NC2CCCCC2)c(CSc2nccc(C)n2)cc1=O,.,1.4
C=CCc1ccc(OCCOc2ccc(/C=C3\SC(=S)N(CC)C3=O)cc2OCC)c(OC)c1,-5.3,.
CC(C)c1ccc2occ(CC(=O)N(Cc3ccc(Cl)cc3)C3CCS(=O)(=O)C3)c2c1 (configuration not stated),-4.8,0.57
CN1C(C(=O)Nc2sc3c(c2C(N)=O)CCCC3)=CC(c2ccc(F)cc2)=NS1(=O)=O,0.69,-2.5
CCOC(=O)c1[nH]c(C)c(CN(CC2CCCO2)C(=O)c2cccs2)c1C (configuration not stated),.,0.52
CC(C)COC(=O)N1c2ccccc2NC(=O)CC1C (configuration not stated),-0.18,0.15
Cc1cc(S(=O)(=O)Nc2ccc3c(c2)COC3=O)ccc1F,-1.7,1.4
Cc1ccc2c(n1)sc1c(=O)n(Cc3ccccc3)nnc12,-2.5,3.8
CCCCCCNc1nc(CC)c2c(c1C#N)CC(C)(C)OC2,-1.5,-0.68
CCCC12CN3CC(C)(CN(C1)C3c1cccc(C)c1)C2=O (configuration not stated),-1.1,.
Cc1oc2ncnc(N3CCCCC3)c2c1C(=O)Nc1ccc2c(c1)OCCO2,.,-0.95
Nc1c(C(=O)Nc2ccccc2Br)sc2nc3c(cc12)CCCC3,-0.41,.
O=C(Nc1ncccn1)c1ccc(Cl)cc1,-0.78,.
COC(=O)c1ccc(C2c3c(-c4ccccc4O)n[nH]c3C(=O)N2Cc2cccnc2)cc1 (configuration not stated),-0.18,-0.59
Cn1c(SCc2cccc(Cl)c2)nc(=O)c2c1NC(=O)CC2c1cccc(O)c1 (configuration not stated),-0.38,-0.9
O=c1c2c([nH]c(=S)n1CC1CCCCC1)-c1ccccc1CC21CCCCC1,-3.7,.
# Later entries:
SMILES,CDC25B CDK2 inh,TAR Tat displ
CCCN1CCN(CCNC(=O)Nc2ccc3c(c2)OCO3)CC1,-2.2,0.33
Cc1cc(=O)[nH]c(SCc2cn3cccnc3n2)n1,0.46,1.8
Cc1nn2c(c1-c1cccc(Cl)c1)NCN(Cc1ccccc1)C2,-0.89,0.7
O=C(Nc1ccc(C(F)(F)F)cc1)Nc1ccccc1C(=O)O,-2.4,.
CS(=O)(=O)C1Cc2ccccc2CN1C(=O)Nc1ccc(Oc2ccccc2)cc1 (configuration not stated),.,2.4
Cc1ccc(Cl)cc1N1CCN(Cc2nnc(-c3cccc(Br)c3)o2)CC1,-2.2,1
COc1ccc2c(c1)c(=O)oc1cc3oc(C)c(-c4ccccc4)c3cc12,-1.6,-1.6
COc1ccc(OC)c(S(=O)(=O)Nc2cc3c(cc2N2CCCC2)n(C)c(=O)c(=O)n3C)c1,.,-1
Cc1ccc(-c2nc(SCc3ccccc3)[nH]c(=O)c2C#N)cc1,0.52,3.4
O=C(NC1CCCC1)c1ccc2c(=O)[nH]c3c(C(=O)NCC4CCCO4)sc(=S)n3c2c1 (configuration not stated),.,9.3
Cc1ccc(S(=O)(=O)c2nnn(-c3ccccc3)c2C)cc1C,-0.67,1.3
CCCCOC(=O)CNc1n[nH]c(=O)[nH]c1=O,0.4,-0.86
Cn1cc(S(=O)(=O)N2CCc3ccccc32)cc1C(=O)N1CCC(C(N)=O)CC1,0.57,-1.4
COC(=O)C1=C(C)Nc2ncnn2C1c1ccccn1 (configuration not stated),-0.87,-0.27
Nc1nonc1-n1nnc(C(=O)O)c1CN1CCOCC1,0.93,.
COc1ccc(NC(=O)C2=Cc3cc(OC)ccc3OC=C2)cc1,-0.78,0.23
COc1cc(C2c3c(n[nH]c3C)C(=O)N2C)ccc1O (configuration not stated),0.2,-0.78
CN(Cc1ccccc1)c1oc(/C=C/c2ccc(F)cc2)nc1C#N,-2.3,1.3
O=C1c2cc3ccccc3nc2-c2cccc3cccc1c23,-2.2,.
CCN1CCN(C2=NC3(CCCCC3)C(C#N)C(=O)N2)CC1 (configuration not stated),-1.8,0.87
CCCCN1C=C(OC(=O)c2ccccc2Br)c2ccccc2S1(=O)=O,-1.6,0.2
Cc1ccc(CN2CCC(CNS(=O)(=O)c3cc4[nH]c5c(c4cc3C)C(=O)CCC5)C2)cc1 (configuration not stated),.,-0.03
O=C(Cn1c2ccccc2c2cn[nH]c(=O)c21)NCc1ccccn1,-1.8,.
C=CCSc1nnc2n(Cc3ccccc3)c(=O)c3c4c(sc3n12)CC(C(C)(C)C)CC4 (configuration not stated),-2.5,.
Cc1cc(-c2ccc(S(=O)(=O)Nc3ccccc3C)s2)on1,.,0.47
# Other structures follow:
SMILES,CDC25B CDK2 inh,TAR Tat displ
O=C(O)c1cc(-c2ccccc2F)nc2n[nH]c(-c3ccc(F)cc3)c12,.,4.3
O=C1CC(c2nc3ccccc3n2Cc2ccccc2Cl)CN1c1ccccc1 (configuration not stated),-2,-1.4
O=C1CCCC2=C1C(c1ccccc1OCc1ccccc1F)C1=C(CCCC1=O)N2,-1,1.4
CCC(SC1=Nc2ccccc2C2=NC(C)C(=O)N12)C(=O)Nc1ccc(Cl)cc1 (configuration not stated),.,-2.5
O=C1c2ccccc2-c2onc3c(N4CCOCC4)cc(NCCO)c1c23,0.79,-4.5
Cn1cnc(S(=O)(=O)N2CCOCC2)c1,.,2.5
CCOCCOC(=O)C1=C(C)NC2=C(C(=O)CCC2)C1c1ccc(O)c(OCC)c1 (configuration not stated),-1.1,-0.43
COc1cc(CC(=O)O)ccc1OCc1ccccc1,-0.01,.
Cn1nc(-c2ccc(Cl)cc2)c2cc(C(=O)N3CCN(Cc4ccc5c(c4)OCO5)CC3)sc21,-2,2
COC(=O)C1=C(C)NC2=C(C(=O)CCC2)C1c1ccc(C)cc1 (configuration not stated),-0.81,0.87
O=S1(=O)N=C(N2CCOCC2)c2ccccc21,-0.56,1.9
O=C(Nc1cccc(Br)c1)N1CCC(CN2CCCCC2)CC1,.,0.67
COc1ccc(-n2sc3c(c2=S)-c2ccccc2NC3(C)C)cc1OC,-2.9,-0.66
COc1ccc(-c2nnc(SCc3cc(=O)n4cc(C)sc4n3)n2C)cc1,.,0.45
CCOc1cc(CNc2ccc(O)cc2)cc(Cl)c1OCc1cccs1,-0.96,-3.8
CCOC(=O)C1CCN(c2csc3ccc(Br)cc3c2=O)CC1,.,-0.15
CSc1ccc(C2=NN(C(C)=O)C(c3cccc(Cl)c3)O2)cc1 (configuration not stated),.,0.65
Cc1onc(-c2c(Cl)cccc2Cl)c1NC(=O)N1CCCN2C(=O)c3ccccc3C12 (configuration not stated),-1.8,.
COc1ccc(-c2nc(SCc3ccccc3)n[nH]2)cc1,-1.1,11
O=C(c1cnn(-c2cccc(F)c2)c1C1CCNCC1)N1CCN(c2ccccc2F)CC1,.,2.2
O=C(c1ccc(Cn2c(SCc3ccc(F)cc3)nc3ccncc32)cc1)N1CCCC1,-0.63,0.42
CC(C)CCn1c(=O)c2ccccc2n2c(CCC(=O)NCC3CCCO3)nnc12 (configuration not stated),-0.74,-0.38
Cc1cccn2c(=O)c3cc(C(=O)Nc4ccc(S(N)(=O)=O)cc4)n(C)c3nc12,.,43*
Cc1n[nH]c(=O)c(Cc2ccc(Cl)cc2)n1,-1.6,.
CCOc1ccc(S(=O)(=O)Nc2cc3c(cc2N2CCOCC2)n(C)c(=O)n3C)cc1,.,1.3
# Additional entries follow:
SMILES,CDC25B CDK2 inh,TAR Tat displ
COc1ccccc1-c1nnc(N)s1,-0.28,1.2
Cn1c(=O)[nH]c(=O)c2c1nc(NCCCO)n2CCOc1ccccc1,-0.78,0.63
CC1CCCN(c2cc3c(cc2F)c(=O)c(S(=O)(=O)c2cccc(Cl)c2)cn3C)C1 (configuration not stated),.,0.54
O=C(NCc1cccnc1)c1cnc2sccn2c1=O,-0.71,0.86
O=C1c2cnccc2CN1Cc1ccccc1F,.,0.77
CC(=O)c1c(O)c(C)c(O)c2c1OC1=CC(=O)C(C(C)=O)C(=O)C12C (configuration not stated),.,2
CCCN(CCC)CCNS(=O)(=O)c1ccc2c(c1)oc(=O)n2C,-0.84,.
O=C(Nc1ccc2c(c1)OCCO2)c1cnn(-c2cccc(F)c2)c1C1CCNCC1,.,0.42
O=C(CC(C(=O)c1ccccc1)c1cccs1)c1ccc(Cl)cc1 (configuration not stated),-0.77,.
Cc1ccc(S(=O)(=O)N2CCCC2=O)cc1,-1.9,.
CN(CC(=O)NC1CCCC1)S(=O)(=O)c1ccc2c(c1)c(=O)n(C)c(=O)n2C,-0.65,-1.4
COc1cc2nc(=S)n3[nH]c(COc4ccc(Cl)cc4)nc3c2cc1OC,-2,.
CCOC(=O)c1c(C)[nH]c(C)c1S(=O)(=O)NCC(=O)NC(C)CC (configuration not stated),.,1.7
Cc1csc(NC(=O)Cn2cc(S(=O)(=O)N3CCCC3)c(S(=O)(=O)N3CCCC3)c2)n1,.,4.4
CCOC(=O)c1c(C)nn(-c2ccc(N)cc2)c1C,-0.89,.
Cc1ccc(N2C(=O)c3ccccc3C2Nc2cc(C)cc(C)c2)nc1 (configuration not stated),1.3,0.84
CCOC(=O)C1=C(C)Nc2nc(SCC(C)C)[nH]c(=O)c2C1c1ccncc1 (configuration not stated),-0.58,-1.4
NC(=O)c1cc(S(=O)(=O)N2CC=C(c3ccccc3)CC2)cs1,.,1.5
CCCN1CCN(C(=O)CCc2nnc3ccc(N4CCCCC4)nn23)CC1,.,0.08
Cc1ccc(-n2c(SCc3cc(=O)n4cc(Cl)ccc4n3)nc3ccsc3c2=O)cc1C,-1.4,1.1
CC1=C(c2ccc(C)cc2)S(=O)(=O)N=C1Nc1ccc(F)cc1C,-1.4,-0.46
COc1ccc(C2C(C(=O)OC3CCCCC3)=C(C)NC3=C2C(=O)CC(C)(C)C3)cc1 (configuration not stated),0.26,-0.06
CC(C)CCNC(=O)C1(C)Cn2c(c(-n3cccc3)c3ccccc32)C(=O)N1Cc1cccs1 (configuration not stated),.,0.61
O=S(=O)(Nc1cccnc1)c1ccc2[nH]c3c(c2c1)CCCCC3,.,-0.14
Cc1ccc(OCc2nc(-c3cccnc3)no2)c(Br)c1,0.07,0.42

# Whole records as entered above. Order of screens: CDC25B CDK2 inh, TAR Tat displ
# Results for Cc1ccc(N2C(=O)c3ccccc3C2Nc2cc(C)cc(C)c2)nc1 (configuration not stated) : 1.3, 0.84
# Results for CCCN1CCN(CCNC(=O)Nc2ccc3c(c2)OCO3)CC1 : -2.2, 0.33

# Continued:
SMILES,CDC25B CDK2 inh,TAR Tat displ
O=C(CCC(=O)N1c2ccccc2NC2=C(C(=O)CCC2)C1c1ccco1)NCC1CCCO1 (configuration not stated),.,2.2
Clc1ccc(-c2csc3ncnc(N4CCCCC4)c23)cc1,.,-0.36
CCN(CC)S(=O)(=O)N1CCC(C(=O)NCCN2CCOCC2)CC1,.,0.5
O=C(c1ccc(F)cc1)c1cn(Cc2cccc(F)c2)c2cc3c(cc2c1=O)OCCO3,0.02,0.25
CCc1cccc(C)c1NS(=O)(=O)c1cc(-c2cnc(C3CC3)o2)ccc1C,.,1.2
c1csc(C2=Nn3c(Cn4nnc5ccccc54)nnc3SC2)c1,-1.5,.
COc1cccc(C2NC(C(=O)O)C3C(=O)N(c4cccc(C(=O)O)c4)C(=O)C23)c1O (configuration not stated),0.56,.
COCCNC(=O)N1CCc2cc(S(=O)(=O)N3CCc4ccccc43)ccc21,.,0.83
CCc1nnc(NS(=O)(=O)c2ccc(N)cc2)s1,-2,1.5
Nc1ccc(Oc2ccc(C(F)(F)F)cc2)nc1,-0.88,.
Cn1c(=O)oc2cc(S(=O)(=O)Nc3ccc(S(N)(=O)=O)cc3)ccc21,0.44,-1

# Gathered by group, the entries above containing fluorine.
SMILES,CDC25B CDK2 inh,TAR Tat displ
O=c1[nH]c2cc(C(F)(F)F)cc(Br)c2[nH]c1=O,-0.33,.
CN1C(C(=O)Nc2sc3c(c2C(N)=O)CCCC3)=CC(c2ccc(F)cc2)=NS1(=O)=O,0.69,-2.5
Cc1cc(S(=O)(=O)Nc2ccc3c(c2)COC3=O)ccc1F,-1.7,1.4
O=C(Nc1ccc(C(F)(F)F)cc1)Nc1ccccc1C(=O)O,-2.4,.
CN(Cc1ccccc1)c1oc(/C=C/c2ccc(F)cc2)nc1C#N,-2.3,1.3
O=C(O)c1cc(-c2ccccc2F)nc2n[nH]c(-c3ccc(F)cc3)c12,.,4.3
O=C1CCCC2=C1C(c1ccccc1OCc1ccccc1F)C1=C(CCCC1=O)N2,-1,1.4
O=C(c1cnn(-c2cccc(F)c2)c1C1CCNCC1)N1CCN(c2ccccc2F)CC1,.,2.2
O=C(c1ccc(Cn2c(SCc3ccc(F)cc3)nc3ccncc32)cc1)N1CCCC1,-0.63,0.42
CC1CCCN(c2cc3c(cc2F)c(=O)c(S(=O)(=O)c2cccc(Cl)c2)cn3C)C1 (configuration not stated),.,0.54
O=C1c2cnccc2CN1Cc1ccccc1F,.,0.77
O=C(Nc1ccc2c(c1)OCCO2)c1cnn(-c2cccc(F)c2)c1C1CCNCC1,.,0.42
CC1=C(c2ccc(C)cc2)S(=O)(=O)N=C1Nc1ccc(F)cc1C,-1.4,-0.46
O=C(c1ccc(F)cc1)c1cn(Cc2cccc(F)c2)c2cc3c(cc2c1=O)OCCO3,0.02,0.25
Nc1ccc(Oc2ccc(C(F)(F)F)cc2)nc1,-0.88,.

# Compound activity (PubChem)
